Compound activity: PubChem, Center for Chemical Genomics, University of Michigan
CDC25B-CDK2 inh: human CDC25B-CDK2/CyclinA binding inhibition | P30305+P24941 | AID 1259370 | HTRF CDC25B-CDK2/CyclinA binding, anti-His/anti-Flag; active compounds read high | z-score (concentration not given with the values) | hit rate 0.72% among 94,000;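 note: score is relative to mean and SD of negative controls; strong numbers were not always called active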
TAR Tat displ: HIV-1 TAR-Tat binding disruption; HIV-1 TAR RNA, Tat peptide displacement FRET; active compounds read high; z-score (concentration not given with the values); hit rate 0.6% among 100,000;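 note: score is relative to mean and SD of negative controls; some compounds called inactive have numbers as strong as hits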
An asterisk follows results filed as active; . = no result given.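 Rule for the calls: active = z-score from 3 up in half or more of its runs; inactive = the rest.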

SMILES | CDC25B-CDK2 inh | TAR Tat displ
CCOC(=O)c1c(S(=O)(=O)NCCc2nc3ccccc3[nH]2)c(C)n(C)c1C | . | 0.07
Cc1cc(=O)[nH]c(Nc2ccc(O)cc2C)n1 | -3.4 | 0.85
Cc1cc(C)c(C#N)c(SCS(=O)Cc2ccc(Cl)cc2)n1 (configuration not stated) | -0.78 | 1.5
CCCCc1ccc(NC(=O)CSc2nnc(NC(=O)c3cccs3)s2)c(C)c1 | -1.2 | .
CCCN1C(=O)C2(c3ccccc31)c1c(oc3ccccc3c1=O)C(=O)N2CCO (configuration not stated) | -0.77 | 2.2
O=C1C(c2ccccc2)=C(NC2CCN(Cc3ccccc3)CC2)c2ccccc21 | -1.8 | -1.1
CCCCc1nn2c(=O)cc(CSc3n[nH]c(CC)n3)nc2s1 | . | -0.45
O=c1c2c(-c3ccc(Cl)cc3)csc2ncn1CC1CCCO1 (configuration not stated) | -0.48 | 0.62
Cc1nc2ccc(Cl)cn2c(=O)c1NC(=O)CC1CCCC1 | . | 0.8
O=S(=O)(NCc1ccncc1)c1ccc(Br)cc1 | -0.61 | -0.29
O=c1c(S(=O)(=O)c2ccc(F)cc2)cn(Cc2ccccc2)c2cc3c(cc12)OCO3 | -0.35 | 0.13
CCOc1ccc(Nc2oc(/C=C/c3ccc(F)cc3)nc2C#N)cc1 | 0.33 | -0.4
CCC(C)NC(=O)c1c(O)nc2c(C)cccn2c1=O (configuration not stated) | -1.8 | 1.3
O=C(CSc1nnc(-c2ccccc2)o1)N1CCc2ccccc21 | 0.63 | 0.02
Fc1ccc(-c2noc3ncnc(NC4CC4)c23)cc1 | . | 0.91

5 records drawn at random from those above:
SMILES | CDC25B-CDK2 inh | TAR Tat displ
CCC(C)NC(=O)c1c(O)nc2c(C)cccn2c1=O (configuration not stated) | -1.8 | 1.3
O=c1c2c(-c3ccc(Cl)cc3)csc2ncn1CC1CCCO1 (configuration not stated) | -0.48 | 0.62
CCCCc1nn2c(=O)cc(CSc3n[nH]c(CC)n3)nc2s1 | . | -0.45
O=C1C(c2ccccc2)=C(NC2CCN(Cc3ccccc3)CC2)c2ccccc21 | -1.8 | -1.1
O=C(CSc1nnc(-c2ccccc2)o1)N1CCc2ccccc21 | 0.63 | 0.02

More structures follow.
SMILES | CDC25B-CDK2 inh | TAR Tat displ
O=C(O)c1nc(N2CCOCC2)c2oc3ccccc3c2n1 | -0.84 | 0.59
COC(=O)c1ccc(COc2ccc3c4c(c(=O)oc3c2)CCCC4)o1 | 0.11 | .
Cc1ccc(-n2ncc3c(N4CCN(C)CC4)ncnc32)cc1C | . | 0.24
NC1=NC(c2ccc(Cl)cc2)C(C(=O)c2ccccc2)N1 (configuration not stated) | -2.5 | .
O=C(CSc1ncn[nH]1)c1ccc(-c2ccccc2)cc1 | -1.4 | 2
Cc1nn(CC(=O)NCCC2=CCCCC2)c(=O)c2cc3sccc3n12 | -2.3 | .
O=C(Cc1ccccc1)N1N=C(c2ccc(F)cc2)CC1(O)C(F)(F)F (configuration not stated) | -2.6 | .
Cc1ccccc1CSc1nc2c(c(=O)[nH]1)C(c1cc(F)ccc1F)CC(=O)N2 (configuration not stated) | -1.2 | 1.5
O=C(CNc1cc(C(F)(F)F)cc(C(F)(F)F)c1)c1ccc(Cl)cc1 | -2.3 | .
CCCCN1c2ccccc2S(=O)(=O)c2ccccc21 | . | -0.23
OC(CN1CCN(c2ccc(Cl)cc2)CC1)c1ccc2c(c1)CCN2 (configuration not stated) | -0.29 | 0.56
CC1Cc2cc(S(=O)(=O)CCC(=O)Nc3cccnc3)ccc2N1C(=O)C1CC1 (configuration not stated) | . | -0.69
CN1c2ccccc2N(C)C1c1ccc(O)cc1 | . | 1.2
CCN1CCN(C(=O)CN2C(=O)CSc3ccc(S(=O)(=O)N4CCC(C)CC4)cc32)CC1 | 0.13 | 0.57
O=C(COc1ccccc1F)OCc1cc(=O)n2c3c(sc2n1)CCCC3 | . | 0.53
Cn1c(=O)c2c(-c3ccc(Br)cc3)c(NCc3ccccc3)oc2n(C)c1=O | . | 1.8
Cc1nn(-c2ccc(Cl)cc2)c(C)c1S(=O)(=O)N1CCc2ccccc2C1 | . | 2.2
O=C(O)c1cccnc1Oc1ccc2c(c1)OCO2 | -1.4 | .
Cc1c(C(=O)NC2CCCCC2)c(C)n2cnn(CC(=O)N3CCCCC3)c(=O)c12 | -1.2 | 2.8
CCOc1cc(C(F)(F)F)cnc1/C(N)=N/O | 1.2 | .
COc1ccc(-c2nc3cnccn3c2Nc2ccc3c(c2)OCO3)cc1 | -0.08 | .
O=C(Nc1ccccc1Br)Nc1ccccc1Br | -1.5 | .
Cc1cn2c(=O)cc(COc3ccc(C(C)C)cc3)nc2s1 | -1.6 | 0.63
O=C(CN1c2ccc(Br)cc2-c2ccccc2S1(=O)=O)Nc1ccccc1 | 0.07 | -0.23
Cc1cc(NS(=O)(=O)c2c(C)nc3sc4ccccc4n3c2=O)ccc1Br | -2.2 | 0.99
N#Cc1c(NC(=O)c2ccc(S(=O)(=O)N3CCOCC3)cc2)sc2c1CCCC2 | -1.4 | 0.4
CCN(CC)S(=O)(=O)c1ccc2c(c1)c(=O)c(C(=O)O)cn2C | . | 1.3
CC(C)C1C(=O)Nc2ccc(S(=O)(=O)NCCC3=CCCCC3)cc21 (configuration not stated) | . | 1.2
O=C(Nc1c(C(=O)c2ccc(Cl)cc2)oc2ccccc12)c1csnn1 | -1.6 | -1.2
CCOC(=O)CSc1sc(C(=O)OCC)c2c1S(=O)(=O)N(C)c1ccccc1-2 | -1.2 | .
O=C(c1cc2nc(-c3ccc(F)cc3)cc(C(F)(F)F)n2n1)N1CCCCC1 | . | -0.18
O=C(C1=C(Nc2ccc3c(c2)OCO3)c2ccccc2S1(=O)=O)N1CCOCC1 | . | 1.2
CCOc1ccccc1C1C(C#N)=C2N=C(N)c3ccccc3N2C2=C1C(=O)CC(C)(C)C2 (configuration not stated) | -2 | -0.47
Cn1c(SCC(=O)N2CCN(c3ccccc3)CC2)nnc1-c1c[nH]c2ccccc12 | -2 | .
COc1ccc(N2C(=O)C=CC2=O)cc1OC | 1.1 | .
O=C(O)c1ccccc1Sc1ccccc1S(=O)(=O)NC12CC3CC(CC(C3)C1)C2 | -0.95 | .
CCCN1CCN(c2ncc3c(n2)CCN(Cc2ccccc2C)C3)CC1 | . | 0.23
CC(C)c1ccc(C2Nc3ccccc3S(=O)(=O)N2Cc2ccccc2)cc1 (configuration not stated) | -2.5 | .
COc1cccc(CNc2nc3ccccc3c3nc(-c4ccncc4)nn23)c1 | 1.2 | 0.64
Cc1cc(-c2ccc(S(=O)(=O)Nc3cccc(Br)c3)s2)on1 | . | -1.3
C=C(C)Cn1c(-c2ccc(OC)cc2)nc2ccccc21 | -0.09 | 0.04
CCCN(CCC)S(=O)(=O)c1ccc2c(c1)N(CC(=O)OC)C(=O)CS2 | . | -0.47
COC(=O)c1ccc(C2NC(=O)CS2)cc1 (configuration not stated) | 1.3 | -2.5
Cc1cccn2c(=O)c3cc(C(=O)N(CC(C)C)CC(C)C)sc3nc12 | -0.58 | .
Cn1nc(C(=O)N2CCC(N3CCCCC3)CC2)c2c1-c1ccccc1S(=O)(=O)C2 | -1.1 | 1.7
Cc1nc(-c2ccccc2)sc1C(=O)O/N=C(\N)c1ccc([N+](=O)[O-])o1 | -1.6 | .
Cc1cc(-c2ccc(C(C)C)c(S(=O)(=O)N3CCOc4ccccc43)c2)on1 | . | 1.2
CCOC(=O)c1cnn(-c2ccc(Cl)cc2)c1C1CCNCC1 | 1.8 | 0.26
CCN(CC)Cc1c(C)[nH]c2ccc(C)cc2c1=O | -0.09 | 0.24
COC(=O)c1ccc(Cn2nc(-c3ccc(C)c(C)c3)ccc2=O)cc1 | -1.3 | -0.41
Cc1ccc(NCc2c(CO)cnc(C)c2O)c(C)c1 | . | 0.4
Cc1cccc2c1Oc1nc(-c3ccccc3)nc(SCC(=O)O)c1C2 | -2.8 | 0.83
CN1C(=O)C(C)(C)c2cc(S(=O)(=O)N3CCC(CCN4CCOCC4)CC3)ccc21 | . | 0.57
O=c1c(O)c(-c2ccccc2)oc2cc(O)ccc12 | . | -0.58
CCOC(=O)c1cnc2c(c(C)nn2C)c1Oc1ccc(Cl)cc1 | -0.65 | .
COC(=O)c1ccccc1S(=O)(=O)Cc1ccc(OC)c(OC)c1 | -1.9 | .
CCOc1cc(Cl)c(C2C(C(=O)OC)=C(C)NC3=C2C(=O)c2ccccc23)cc1OC (configuration not stated) | -1.1 | -2.3
O=C(c1cccn2c(-c3ccc(F)cc3)nnc12)N1CCC(O)(c2ccc(Cl)cc2)CC1 | . | 1.3
O=c1cc(-c2ccccc2)nc2nc(NCc3ccc(Cl)cc3)[nH]n12 | -2.9 | -0.07
CC(C)CCN1C(=O)c2ccc(-c3ccco3)n2CC1(C)C(=O)NC1CCC(C)CC1 (configuration not stated) | . | 0.15
New compounds follow:
SMILES | CDC25B-CDK2 inh | TAR Tat displ
CCCSc1nc2c(c(=O)[nH]1)C(c1ccc(Cl)cc1)C(C(=O)OC)=C(C)N2 (configuration not stated) | 0.66 | 1.4
Cc1occc1-c1nnc(SCC(=O)Nc2ccc3c(c2)OCO3)o1 | -2.5 | 1.8
CCN(CC)C(=O)c1sc2nc3c(cc2c1N)CCCCC3 | -0.33 | 0.88
Cc1nc(N2CCN(C)CC2)cc(N2CCN(C(=O)Nc3ccc(F)cc3)CC2)n1 | -0.88 | 0.63
CCN1CCN(C(=O)Cn2ncn3nc(-c4cccs4)cc3c2=O)CC1 | -2.1 | -1.1
CC1(C)Cc2nc(N3CCCC3)c(C#N)cc2CO1 | -1.8 | -0.14
Cn1c(=O)[nH]c2nnc(-c3ccc4c(c3)OCO4)nc2c1=O | -1.3 | -0.58
Cc1ccc(-c2noc(C3CCCN(S(=O)(=O)c4ccc(Cl)cc4)C3)n2)cc1 (configuration not stated) | . | 2.4
Cc1cc(C(=O)O)c(S(C)(=O)=O)s1 | 0.52 | 0.16
Cc1csc2ncc(C(=O)NCCN3CCCCC3)c(=O)n12 | . | 0.49
Cc1ccc(C)c(Cn2cccc2CNC(=O)NC(C)C)c1 | . | 1.2
Cc1cc(C)cc(N2C(=O)N(C)C3CS(=O)(=O)CC32)c1 (configuration not stated) | . | 0.69
c1ccc2c(c1)nc1c2ccc2[nH]onc21 | -2.4 | .
Cc1ccc(C(CNC(=O)c2oc3ccc(Cl)cc3c2C)N2CCCCC2)o1 (configuration not stated) | -0.93 | 0.47
CCOC(OCC)(OCC)P(=O)(N(CC)CC)N(CC)CC | -0.18 | .
O=C1CC(Nc2ccc(F)cc2)C(=O)N1c1ccc(N2CCCCC2)cc1 (configuration not stated) | -3.7 | 2.1
CCOc1ccc(-c2nc(C#N)c(N3CCC(C)CC3)o2)cc1 | -0.94 | -0.96
CC1(C)CC(=O)C(Sc2ccc([N+](=O)[O-])cc2)=C(OC(=O)c2ccc(F)cc2)C1 | -0.25 | .
O=C(Nc1ccc(-c2nc3ccccc3s2)c(O)c1)c1ccc2c(c1)OCCO2 | -2.1 | .
CCc1nc2n(n1)C1(CCCCC1)[C@@H]1CCCC[C@@H]1N2C(=O)CC(C)C | -1.3 | 2.6
Cc1ccc(S(=O)(=O)NCCc2nnc3ccc(SCc4cccc(F)c4)nn23)cc1 | . | 1.9
CCCc1nnc(NC(=O)c2nc(SCC)ncc2Cl)s1 | 2.4 | 0.32
Cc1ccccc1C(=O)Nc1cnc2scnn2c1=O | 0.87 | 0.62
O=C(Nc1ncc(Cc2ccc(Cl)cc2)s1)c1ccc2snnc2c1 | -2.3 | -1.2
Cc1ccc(-c2n[nH]c3c2C(c2ccc(O)cc2)N(C)C3=O)cc1 (configuration not stated) | -0.37 | -1.8
CCOC(=O)N1CCN(S(=O)(=O)c2ccc3c(c2)NC(=O)CS3)CC1 | . | 2
Cc1c(C(=O)CSc2nc3ccccc3c(=O)[nH]2)c2ccccc2n1C | . | 2.4
Cc1ccc(NC(=O)N2CCn3cccc3C2C(C)C)cc1Cl (configuration not stated) | . | -0.85
Cc1noc(/C=C/N(C)C)c1S(=O)(=O)N(C)CC(=O)N1CCc2ccccc21 | . | 2.6
COc1ccc(-n2ncc3c(NCc4ccccn4)ncnc32)cc1 | -0.7 | .

In the list so far, these have a cyano group:
SMILES | CDC25B-CDK2 inh | TAR Tat displ
Cc1cc(C)c(C#N)c(SCS(=O)Cc2ccc(Cl)cc2)n1 (configuration not stated) | -0.78 | 1.5
CCOc1ccc(Nc2oc(/C=C/c3ccc(F)cc3)nc2C#N)cc1 | 0.33 | -0.4
N#Cc1c(NC(=O)c2ccc(S(=O)(=O)N3CCOCC3)cc2)sc2c1CCCC2 | -1.4 | 0.4
CCOc1ccccc1C1C(C#N)=C2N=C(N)c3ccccc3N2C2=C1C(=O)CC(C)(C)C2 (configuration not stated) | -2 | -0.47
CC1(C)Cc2nc(N3CCCC3)c(C#N)cc2CO1 | -1.8 | -0.14
CCOc1ccc(-c2nc(C#N)c(N3CCC(C)CC3)o2)cc1 | -0.94 | -0.96

(further entries)
SMILES | CDC25B-CDK2 inh | TAR Tat displ
Cc1cc(C)cc(OC(=O)c2nc(S(C)(=O)=O)ncc2Cl)c1 | -2.1 | 0.65
Cc1ccc2oc3c(c(=O)c2c1)C(c1cccc(Br)c1)N(CCCN1CCOCC1)C3=O (configuration not stated) | -0.09 | -0.2
O=C(NCCCN1CCC(N2CCCCC2)CC1)C1CCN(c2nnc(-n3cccc3)s2)CC1 | . | 0.76
COC(=O)c1ccc(Cl)cc1NC(=O)NC(C)c1c(-n2cccc2)sc(C)c1C (configuration not stated) | -0.49 | 1.8
COc1ccc(N2CCN(C(=O)CC3(CC4=NS(=O)(=O)c5ccccc5N4)CCCC3)CC2)cc1 | . | -0.61
Cn1c(=O)c2c(nc(CN3CCCCC3)n2Cc2c(F)cccc2Cl)n(C)c1=O | -0.15 | 0.17
Cc1nc2nc(C(C)C)cc(=O)n2[nH]1 | -0.19 | -0.27
O=C(O)c1ccc2c(c1)C(=O)N(Cc1cccnc1)C2=O | -2.2 | .
CC(=O)c1c(C)[nH]c(C(=O)NCCCN2CCC(C)CC2)c1C | -1.3 | .
